Screens deposited in PubChem BioAssay by several laboratories.
Arbovirus anti: antivirals against arbovirus infection; arbovirus infection cell-based antiviral screen; inhibition, % at 10 µM; 200,000 compounds, 0.37% hits; AID 1251;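 active = inhibition from about 30%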;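 also: bluetongue infection of BSR cells; cell survival read as ATP light after 72 h; 0% = infected wells without compound and 100% = uninfected wells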
Mtb betalactam: beta-lactam sensitization of Mtb H37Rv; 330,000 compounds, 0.27% hits; M. tuberculosis H37Rv growth with meropenem, percent inhibition; hits of this screen are not shown here; AID 434955; inhibition, % at 25 µM;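 active = about 74% or more and at least 40 points above the plate without the antibiotic, then above 30% in a dose series; inconclusive = first-round hits that could not be retested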;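 also: growth measured after seven days incubation then overnight dye step; 0% = bacteria only wells and 100% = bacteria with antibiotic; twin plates without the antibiotic show which effects depend on it; some results filed as inactive read as strong as hits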
Mtb growth: M. tuberculosis H37Rv growth inhibitors, H37Rv strain (AID 1626). inhibition, % at 10 µM, or IC50 in µM where a hit was titrated. M. tuberculosis H37Rv growth inhibition; higher % means a stronger effect. 220,000 compounds, 0.95% hits;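 active = confirmed in a dose series; inconclusive = inhibition above 80% but not taken into the dose series; inactive = below 80% or under 30% at every dose of the series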;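 also: bacteria incubated seven days before Alamar blue readout; 0% = bacteria only wells and 100% = bacteria with antibiotic wells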
YopH inh: blocks Yersinia enterocolitica YopH tyrosine phosphatase; inhibition, %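 (about 10 µM by stock and volumes)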; 140,000 compounds, 0.16% hits; fluorescence Ex485/Em525;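 active = inhibition of 50% or more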;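 also: controls were vehicle for no effect and minimum signal wells for full effect; inactives centre near -20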
RecA intein inh: Mtb RecA intein splicing inhibition; inhibition, %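 (about 9 µM by stock and volumes)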; P9WHJ3; AID 2221; cell-free RecA intein splicing, fluorescence; 290,000 compounds, 0.75% hits; in the data active = inhibition above about 30%; inconclusive = no clear call, values can overlap the other calls;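 also: 0% = vehicle wells and 100% = reference inhibitor control wells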
Target sequence (P9WHJ3 whole entry, looked up): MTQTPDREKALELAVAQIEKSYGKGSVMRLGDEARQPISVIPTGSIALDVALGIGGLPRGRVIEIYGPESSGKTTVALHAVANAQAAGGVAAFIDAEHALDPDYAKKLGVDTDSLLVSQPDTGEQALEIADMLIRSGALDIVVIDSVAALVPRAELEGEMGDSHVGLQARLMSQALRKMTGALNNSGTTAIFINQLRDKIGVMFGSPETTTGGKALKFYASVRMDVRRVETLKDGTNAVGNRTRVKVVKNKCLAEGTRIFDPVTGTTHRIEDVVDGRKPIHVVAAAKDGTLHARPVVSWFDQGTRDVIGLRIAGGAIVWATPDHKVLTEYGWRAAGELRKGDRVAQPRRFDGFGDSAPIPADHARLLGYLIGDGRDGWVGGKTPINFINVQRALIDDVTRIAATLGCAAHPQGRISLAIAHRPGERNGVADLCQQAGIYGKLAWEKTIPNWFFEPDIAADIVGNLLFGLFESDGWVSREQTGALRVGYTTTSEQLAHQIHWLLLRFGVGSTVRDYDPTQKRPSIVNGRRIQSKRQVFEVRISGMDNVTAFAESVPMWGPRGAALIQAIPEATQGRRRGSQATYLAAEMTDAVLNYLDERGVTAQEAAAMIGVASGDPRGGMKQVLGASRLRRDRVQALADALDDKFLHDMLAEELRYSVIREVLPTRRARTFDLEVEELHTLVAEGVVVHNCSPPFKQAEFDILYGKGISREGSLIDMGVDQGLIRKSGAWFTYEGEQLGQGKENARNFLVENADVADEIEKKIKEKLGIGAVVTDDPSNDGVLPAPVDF
Arbovirus anti repeat: second read-out of Arbovirus anti, no call of its own (marks repeat the call); inhibition, %; measured here: 10K subset replicate screen; many hits read low in the repeat;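 first of two repeat runs on a subset; 0% = infected and 100% = uninfected wells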
The depositor's hits bear a star; ? = inconclusive; . = no result given; & = joins results of further samples. These rows are one share of the data; count on the stated rates, not on these rows.

SMILES | Arbovirus anti | Mtb betalactam | Mtb growth | YopH inh | RecA intein inh | others
CCOC(=O)C1=C(COC(=O)/C=C/c2ccc(Cl)cc2)NC(=O)NC1C (stereo not drawn) | . | -12 | . | . | 1.3
Cc1ccc(NC(=O)CCNC(=O)c2ccc(Br)cc2)nc1 | . | -7 | . | . | -1.5
CC1(CCl)CN1S(=O)(=O)c1ccccc1 (stereo not drawn) | . | -4 | -6% | . | 17
CC(c1ccccc1)N1CCn2c(nc3cc(NC(=O)NC4CCCCC4)ccc32)C1 (stereo not drawn) | -22 | 0 | -4% | -22 | 4.2
Cc1ccc(S(N)(=O)=O)cc1NC(=O)/C=C/c1ccc2c(c1)OCO2 | -5 | -1 | -4% | . | 1.1
Cc1cc(SCc2ccc([N+](=O)[O-])cc2)nc(=O)[nH]1 | . | -2 | . | . | -2.9
O=C(CCS(=O)(=O)c1cccc2nonc12)N1CCN(c2ccc(F)cc2)CC1 | 8 | 33 | 4% | -35 | -2.8 | Arbovirus anti repeat=0
CC[n+]1c(C)n(C)c2cc(S(=O)(=O)N(C)C)ccc21 | 3 | 1 | 3% | . | -0.5
N/C(=N\OC(=O)CSc1ccccc1)c1ccc([N+](=O)[O-])cc1 | 0 | 8 | 5% | 1 | 0.3
CN1C(=O)C(O)(CC(=O)/C=C\c2ccc3c(c2)OCO3)c2ccccc21 (stereo not drawn) | -12 | 10 | -6% | . | 1.1
Cc1cc(C)nc(N/N=C/c2ccco2)n1 | -11 | -2 | 0% | -8 | -5.7
C(=N\N1CCN(c2ccccn2)CC1)/c1ccco1 | 11 | 5 | 5% | . | -0.8
COc1ccc(C(=O)Cc2cc3ccccc3oc2=O)cc1 | . | 2 | . | . | -1.0
COCCn1cc(C(=S)N2CCOCC2)c2ccccc21 | 7 | 5 | 0% | 18 | -1.3
Cc1ccc(NC(=O)CN(C)CC(=O)Nc2ccc(N3CCOCC3)cc2)c(C)c1 | -4 | -9 | 0% | -24 | -1.9
COc1ccc(CN2CCOCCOCCN(Cc3ccc(OC)cc3)CCOCCOCC2)cc1 | . | -11 | -8% | . | 1.9
O=C(NCCc1ccncc1)C(F)(F)F | -3 | 1 | -13% | -44 | -1.9
O=C(CCCOc1ccccc1)Nc1ccncc1 | 6 | 54 | 3% | -24 | -0.6
C/C(=N\Nc1nc(C)cc(-c2ccccc2)n1)c1ccc(O)cc1 | . | 92 | . | . | -3.9
O=C(Nc1ncn[nH]1)c1ccccc1Br | 4 | 5 | -6% | -33 | 2.2
O=C(COc1ccc(Cl)cc1)N1CCCCC1 | -2 | 8 | 0% | 5 | 2.3
Cc1ccc(Cl)cc1NC(=S)N(CCN(C)C)Cc1cccs1 | 4 | -5 | 7% | . | 0.0
COc1ccc(Cc2c(O)nc(SCC(=O)NC34CC5CC(CC(C5)C3)C4)[nH]c2=O)cc1 | 0 | -6&-1 | -10%&1% | . | 0.9&8.1
O=C1CC(c2ccc(Cl)cc2)n2nc(NS(=O)(=O)c3ccc(F)cc3)nc2N1 (stereo not drawn) | 10 | -7 | -11% | -32 | 2.2
CC(C)(C)C(=O)Nc1cccc(-c2nc3ccccc3[nH]2)c1 | 2 | 4 | 8% | -2 | -0.6
Other structures.
SMILES | Arbovirus anti | Mtb betalactam | Mtb growth | YopH inh | RecA intein inh | others
Cc1c(-c2nc(-c3ccc(C(F)(F)F)cc3)no2)n(C)oc1=O | . | 0 | 5% | . | -0.6
Cc1ccc(/C=N/NC(=O)c2c(-c3ccccc3)noc2C)c(O)c1 | . | -9 | . | . | 6.0
CC1=C(C(=O)NC2CC(C)(C)Cc3c2cnn3-c2cccc(F)c2)OCCO1 (stereo not drawn) | . | -1 | . | . | 4.1
COc1cc(NC(=O)CSc2nc(C)cs2)cc(OC)c1 | -8 | 21 | -7% | -25 | -5.0
CN1CCN(CCC(=O)Nc2cccc(Br)c2)CC1 | . | 4 | -5% | . | -1.2
S=C(NCC1CCCO1)Nc1ccc(Nc2ccccc2)cc1 (stereo not drawn) | 6 | -4 | -9% | . | -1.7
CCOc1ccccc1CN1CCN(Cc2[nH]c3ccccc3c2C)CC1CCO (stereo not drawn) | -21 | 2 | 0% | . | 0.9
CCCc1nn(-c2ccccc2)c2c1C(c1cccs1)C(C#N)=C(N)O2 (stereo not drawn) | -6 | 4 | 5% | -8 | 67*
O=C(N/N=C/c1cccc(OC(=O)N2CCOCC2)c1)c1cccs1 | -15 | -4 | 6% | -7 | -0.6
CCOC(=O)c1c(C)[nH]c(C)c1C(=O)COc1ncnc2ccccc12 | 8 | 10 | 10% | . | 8.2
CCOCCn1c(CN2CCN(C(c3ccccc3)c3ccccc3)CC2)nc2c1c(=O)n(C)c(=O)n2C | . | 5 | . | . | 0.1
CC(=O)N(Cc1cc(=O)[nH]c2ccccc12)c1ccccc1C | . | ? | . | . | -0.6
CCC(C)(CC(=O)O)CC(=O)Nc1cc(C(F)(F)F)cc(C(F)(F)F)c1 (stereo not drawn) | . | 9 | -12% | . | .
CCCCN(C(=S)Nc1cccc(SC)c1)C1CCN(C(C)=O)CC1 | 4 | -4 | -1% | . | -0.8
CCOC(=O)N1CCN(C(=O)/C=C/c2cccc([N+](=O)[O-])c2)CC1 | 10 | -4 | 3% | . | -2.8
CCn1c(O)c(/C=N/NC(=O)c2ccncc2)c(=O)[nH]c1=S | 19 | 99 | ? | -33 | -1.5
CCOc1ccc(-c2nc(CSc3nnc(N)s3)cs2)cc1 | -7 | -6 | 12% | -3 | -0.3
CCN1CC2=C(OC(N)=C(C#N)C2c2ccccc2)/C(=C\c2ccccc2)C1 (stereo not drawn) | 3 | 5 | 11% | -7 | 6.0
Cn1c(SCC(=O)N/N=C/C=C/c2ccco2)nc2ccccc21 | -1 | 2 | -8% | -6 | 2.9
N#C/C(=C\c1coc2ccc(O)cc2c1=O)C(=O)Nc1nc2ccccc2s1 | . | 1 | -12% | . | -4.2
COc1ccc(CCNC(=O)C(=O)NCC2CCCO2)cc1 (stereo not drawn) | 0 | -6 | 2% | -13 | .
O=C1CC(NS(=O)(=O)c2cccnc2)CN1c1ccccc1 (stereo not drawn) | . | -4 | . | . | -0.7
Cc1ccccc1OCC(=O)NNC(=S)NC(=O)c1ccccc1[N+](=O)[O-] | -14 | 6 | 2% | -8 | -0.2
Cn1c(SCc2ccon2)nc2ccccc2c1=O | 2 | 14 | 12% | -8 | 3.1
CCOC(=O)c1cccc(NC(=O)C(C)N2C(=O)c3ccccc3C2=O)c1 (stereo not drawn) | -2 | -1 | -2% | -57 | 0.5

3 entries picked at random from those above:
SMILES | Arbovirus anti | Mtb betalactam | Mtb growth | YopH inh | RecA intein inh | others
CCOC(=O)c1cccc(NC(=O)C(C)N2C(=O)c3ccccc3C2=O)c1 (stereo not drawn) | -2 | -1 | -2% | -57 | 0.5
COc1ccc(CCNC(=O)C(=O)NCC2CCCO2)cc1 (stereo not drawn) | 0 | -6 | 2% | -13 | .
CCC(C)(CC(=O)O)CC(=O)Nc1cc(C(F)(F)F)cc(C(F)(F)F)c1 (stereo not drawn) | . | 9 | -12% | . | .

In the list so far, 3 contain a CF3 group:
SMILES | Arbovirus anti | Mtb betalactam | Mtb growth | YopH inh | RecA intein inh | others
O=C(NCCc1ccncc1)C(F)(F)F | -3 | 1 | -13% | -44 | -1.9
Cc1c(-c2nc(-c3ccc(C(F)(F)F)cc3)no2)n(C)oc1=O | . | 0 | 5% | . | -0.6
CCC(C)(CC(=O)O)CC(=O)Nc1cc(C(F)(F)F)cc(C(F)(F)F)c1 (stereo not drawn) | . | 9 | -12% | . | .

More compounds:
SMILES | Arbovirus anti | Mtb betalactam | Mtb growth | YopH inh | RecA intein inh | others
Cn1c(=O)c(=O)n(C)c2cc(S(=O)(=O)N3CCOc4ccccc43)ccc21 | . | -9 | . | . | 5.4
COc1cc2c(cc1OC)C(C)N(C(=O)c1cc(C)on1)CC2 (stereo not drawn) | . | 3 | . | . | 1.2
Cc1ccccc1NC(=O)C(Cl)=C(Cl)Cl | -21 | -4 | 3% | . | .
C=CCNC(=S)Nc1ccc(OC(F)F)c(Cl)c1 | 5 | -3 | 8% | . | -1.0
Cc1ccc(NCc2ccccc2O)cc1C | 6 | -1 | ? | . | -5.0
CCNC(=S)N1CCc2cc(OC)c(OC)cc2C1COc1ccc(OC)cc1 (stereo not drawn) | 2 | -1 | 0% | . | 3.4
C=CCn1c(=O)c2ccccc2n2c(SCC(=O)NC)nnc12 | . | -5 | . | . | -1.0
COc1ccc(S(=O)(=O)N2CCOC2CNC(=O)C(=O)NCCCN2CCOCC2)cc1 (stereo not drawn) | . | -16 | . | . | -1.5
COc1ccc(CNC(=O)C(C)NS(=O)(=O)c2ccc(C)cc2)cc1 (stereo not drawn) | 1 | 1 | 1% | . | -1.5
C=CS(=O)(=O)c1ccc(Oc2ccc(S(=O)(=O)C=C)cc2)cc1 | -4 | -2 | -12% | -25 | 8.8
Cn1cccc1CNCC(O)c1ccccc1 (stereo not drawn) | . | -3 | . | . | -0.1
O=S(=O)(/N=C(\Sc1ccccc1)c1ccccc1)c1ccc(Cl)cc1 | -4 | 2 | -1% | -13 | -6.4
CS(=O)(=O)c1ccc(Cl)c(NC(=O)Cc2ccsc2)c1 | . | 0 | . | . | 2.7
COCCC(=O)N1CCC(Oc2ccc(C(=O)N3C[C@@H]4CCC[C@H]3C4)cc2)CC1 | . | 4 | . | . | -1.7
COc1ccc(-c2cc(CNS(=O)(=O)c3cc(OC)ccc3OC)on2)cc1 | . | -11 | . | . | -1.3
CCOC(=S)SCC(=O)Nc1nc(-c2ccccc2)cs1 | -3 | 1 | 11% | 0 | 43*
CC(C)(C)c1cc(NS(=O)(=O)c2cccs2)no1 | . | -1 | . | . | -0.6
Cc1cccc(OCC(=O)O/N=C(\N)Cc2cccs2)c1 | 1 | 16 | 8% | -32 | 6.3
COc1ccc(/C=N/n2c(N)nc3ccccc32)cc1OC | 4 | 12 | -4% | -47 | .
COc1ccc(C2(C)NC(=O)N(CC(=O)Nc3c(C)n(C)n(-c4ccccc4)c3=O)C2=O)cc1 (stereo not drawn) | . | -5 | . | . | 0.7
O=S(=O)(NCCN1CCOCC1)c1ccc(Oc2ccccc2Cl)cc1 | . | -7 | . | . | -0.5
CCN1C[C@]2(CO)CC[C@H](OC)[C@@]34C5C[C@H]6[C@H](OC)C5[C@](O)(C[C@H]6OC)[C@@H](C(OC)C23)[C@@H]14 (stereo partly drawn) | . | 3 | -6% | . | -1.3
Nc1c(C(=O)Nc2ccc(Br)cc2)sc2nc(-c3ccco3)ccc12 | 10 | 94 | 79% | -15 | 4.5
O=C(Cn1c(=O)oc2ccccc21)NCCc1ccccc1Cl | 5 | -12 | -1% | . | -1.6
Cc1cc(C)cc(NC(=S)N2CCN(S(C)(=O)=O)CC2)c1 | . | -3 | . | . | 0.6

The last 2 compounds of the part before open the next one.
SMILES | Arbovirus anti | Mtb betalactam | Mtb growth | YopH inh | RecA intein inh | others
O=C(Cn1c(=O)oc2ccccc21)NCCc1ccccc1Cl | 5 | -12 | -1% | . | -1.6
Cc1cc(C)cc(NC(=S)N2CCN(S(C)(=O)=O)CC2)c1 | . | -3 | . | . | 0.6
O=C(NN=C1CCN(Cc2ccccc2)CC1)c1cc2ccccc2cc1O | -28 | 4 | 52% | -32 | -8.8
OCCC1CN(Cc2ccc3cccc(F)c3n2)CCN1Cc1ccccc1 (stereo not drawn) | . | 2 | . | . | 1.4
COc1ccc(OCCOCCN2CCN(C)CC2)cc1 | . | -15 | . | . | -1.5
O=C(N/N=C/c1ccc2c(c1)OCO2)c1ccc(COc2cccc3cccnc23)cc1 | -25 | 0 | 0% | . | .
CSCC[C@H](NC(=O)N1CCn2c1nc1ccccc12)C(=O)NCc1ccccc1 | . | 9 | . | . | 0.4
O=C(CN(Cc1ccccc1)C(=O)c1cc2c(s1)CCC2)NCc1cccs1 | -8 | -3 | 1% | -11 | -0.8
O=C(NCCc1ccccc1)c1ccc2c(c1)OCO2 | . | -6 | . | . | 0.1
COc1ccc(NC(=O)CSc2nc(N)c(NC(=O)c3cccs3)c(=O)[nH]2)cc1 | . | -8 | -6% | . | 1.8
CCN(CC)CCn1nc(C)nc1-c1ccccc1O | 15 | 0 | 0% | -26 | 0.8
Cc1nc2c(C)cccc2cc1C(=O)N/N=C/c1ccc(O)cc1 | -20 | -3 | 3% | -39 | -2.0
O=C(CCc1nc(-c2ccccc2)no1)NCCc1ccccc1 | -6 | -20 | -8% | -38 | 1.0
COc1ccc(-c2noc(=O)n2Cc2cc(C)ccc2C)cc1 | -3 | -4 | -5% | . | 4.3
O=C(N/N=C/c1ccc(O)c(O)c1)C1CC1 | . | 1 | . | . | -6.5
O=c1cnnc(Nc2ccc(Nc3ccccc3)cc2)[nH]1 | -7 | 1 | 0% | . | 3.9
N=c1ccn(Cc2ccc([N+](=O)[O-])cc2)cc1 | . | -1 | . | . | 0.4
COc1ccc(Cl)cc1NC(=O)CN1CCN(S(=O)(=O)N2CCOCC2)CC1 | . | 6 | . | . | -1.7
